# HCMV NEC inh: inhibitors of HCMV UL50-UL53 nuclear egress complex interaction. HTRF UL50-UL53 interaction, normalized percent inhibition. inhibition, % (no concentration beside the values). 190,000 compounds, 0.15% hits. AID 1918969;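 active means both replicates at 50% or more, plus weaker picks with an unusually low signal ratio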;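 further: stock transfer was 100 nL into about 20 µL; 0% = negative control wells and 100% = wells with untagged competitor protein; inactives centre near -12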
# GIV-Gai inh: GIV-Galpha-i interaction inhibition; P08753; Galpha-i3/FITC-GIV peptide fluorescence polarization, 90 min; hits give low values; scaled: aluminum fluoride 0%, vehicle 100%; percent of control (FP), % (test concentration not listed); AID 1224905; 210,000 compounds, 0.42% hits;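 active means replicate mean at 85% of control or lower, very high polarization wells dropped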;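 further: wells of about 15 µL received 100 nL stock; the first replicate is given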
# Target sequence (P08753 whole entry, looked up): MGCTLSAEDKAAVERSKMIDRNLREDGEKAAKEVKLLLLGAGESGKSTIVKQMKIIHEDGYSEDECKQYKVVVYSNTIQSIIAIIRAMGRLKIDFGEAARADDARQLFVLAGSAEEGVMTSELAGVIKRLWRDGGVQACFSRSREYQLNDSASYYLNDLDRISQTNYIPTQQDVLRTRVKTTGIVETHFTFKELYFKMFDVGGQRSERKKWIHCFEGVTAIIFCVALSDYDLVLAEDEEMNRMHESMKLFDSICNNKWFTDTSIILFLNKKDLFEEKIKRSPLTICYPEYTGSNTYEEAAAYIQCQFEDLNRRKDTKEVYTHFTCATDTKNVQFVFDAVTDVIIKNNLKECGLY
# Sa growth 42C: S. aureus growth inhibition; relative growth, % (concentration not given with the values); AID 720641; 170,000 compounds, 0.53% hits; S. aureus RN4220 growth, OD600, 20 h, 42 °C; hits give low values;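 active means growth at 42 °C up to 50% and 20 or more points under that at 30 °C, or under 10% at both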;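 further: 300 nL library stock went into each well; scaled to the means of positive and negative controls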
# Sa growth 42C second temp: second read-out of Sa growth 42C, no call of its own (marks repeat the call); relative growth, %; measured here: growth at 30 °C;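 optical density after 20 h as mean of two plates; 100% = untreated growth and lower means inhibition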
# * marks the source's active call; other numbers are inactive results; . = no result given; & = joins results of further samples. No enrichment for hits. Share with any hit: about 0.79%.
Structure	HCMV NEC inh	GIV-Gai inh	Sa growth 42C	Sa growth 42C second temp
NC(=O)c1oc2ccccc2c1NC(=O)CSc1ccccc1	-25	.	106	83
Cc1nn(CCC(=O)N2CCc3ccccc32)c(C)c1S(=O)(=O)N1CCCC1	-12	105	107	95
CC(C)n1c(=O)c(=O)[nH]c2cc(-c3noc(-c4ccccn4)n3)ccc21	-44	103	.	.
CC1CC(C)CN(S(=O)(=O)c2ccc3[nH]cc(C(=O)NC4CCCCC4)c(=O)c3c2)C1 (stereo unspecified)	.	94	99	87
CCOc1ccc(CCNC(=O)c2nc(-c3cccnc3)no2)cc1	-25	105	86	79
CN1C(=O)S/C(=C\c2ccc(Oc3ccc([N+](=O)[O-])cc3[N+](=O)[O-])cc2)C1=O	-26	95	.	.
C=CCc1cccc2cc(C(=O)Nc3ccc(S(=O)(=O)Nc4nnc(CC)s4)cc3)c(=O)oc12	-19	98	.	.
COc1ccc(NC(=S)N(CC2CC=CCC2)CC2CCCO2)cc1 (stereo unspecified)	4	.	71	96
O=C(c1ccccc1F)N(Cc1ccco1)c1ccc(O)cc1	9	104	106	78
O=S1(=O)CCN2C(=N1)OC(c1ccccc1)=C2c1ccccc1	-16	.	106	89
COC(=O)c1ccc2c(c1)S(=O)(=O)NC(=NCc1ccco1)S2	-14	.	98	88
O=C(Nc1nc(-c2ccccc2)cs1)Oc1ccccc1	1	.	105	89
Cc1cc(-c2ccc(S(=O)(=O)NCc3ccccc3Cl)s2)on1	.	101	101	98
CCN(C(=O)CCCN1C(=O)/C(=C\c2cccs2)SC1=S)C1CCS(=O)(=O)C1 (stereo unspecified)	-81	104	93	82
CCN=c1scc(-c2ccco2)n1/N=C/c1cccc(C(F)(F)F)c1	-39	.	111	97
Cc1ccc(-c2cc(NC(=O)COc3ccc(Cl)c(C)c3)on2)cc1	5	98	97	96
C=CCN1C(=O)S/C(=C/c2ccc(N3CCOCC3)cc2)C1=O	-24	95	128	103
COc1ccc(NC(=O)C2CC(=O)N(Cc3ccc4c(c3)OCO4)C(=Nc3ccccc3)S2)cc1 (stereo unspecified)	7	107	.	.
Cc1onc(-c2ccccc2)c1CNS(=O)(=O)c1cccc(Cl)c1	-36	96	91	68
COc1ccc(C(=O)NCCS(=O)(=O)Cc2ccc(F)cc2)cc1	7	106	108	77
CCn1c2ccccc2c2nc(C)sc21	-6	.	102	91
Cc1nnc(SCC(=O)Nc2cc(NC(=O)CSc3nnc(C)s3)cc(C(=O)O)c2)s1	2	109	.	.
CCOc1ccc(NC(=O)CN2CCCc3ccccc32)cc1	-14	.	78	83
CN(C)S(=O)(=O)c1ccc(=S)[nH]c1	-13	.	38*	81*

# Exported with values under each structure: part of the list above
# Order of values – HCMV NEC inh	GIV-Gai inh	Sa growth 42C	Sa growth 42C second temp
- CCN(C(=O)CCCN1C(=O)/C(=C\c2cccs2)SC1=S)C1CCS(=O)(=O)C1 (stereo unspecified)
    -81	104	93	82
- CCN=c1scc(-c2ccco2)n1/N=C/c1cccc(C(F)(F)F)c1
    -39	.	111	97
- Cc1ccc(-c2cc(NC(=O)COc3ccc(Cl)c(C)c3)on2)cc1
    5	98	97	96

# Next part
Structure	HCMV NEC inh	GIV-Gai inh	Sa growth 42C	Sa growth 42C second temp
CNC(=O)CSc1nnc(NC2CCCCC2)s1	-8	.	96	97
OCC1c2ccccc2-c2ccccc21	.	93	101	82
Cc1cc(C)c2[nH]c(=O)c(C(c3nnnn3CC3CCCO3)N3CCN(c4ccccc4F)CC3)cc2c1 (stereo unspecified)	-67	105	105	97
O=C(/N=C1/NC(=O)C(F)(C(F)(F)F)S1)NC1CCCCC1 (stereo unspecified)	-34	235	69	51
O=C(c1cc(-c2ccc(Cl)cc2)on1)N1CCCC1	-15	103	98	90
Cc1cc(=O)[nH]c(SCC(=O)N2CCNC2=O)c1C#N	-30	.	105	85
CC(=O)c1cccc(NS(=O)(=O)c2c(C(=O)N3CCCCCC3)c(C)n(C)c2C)c1	.	97	80	89
O=C(COc1ccccc1)Nc1ccccc1N1CCN(c2ccccc2)CC1	2	103	86	103
Cc1ccc(-c2nc(CSc3nc4c(c(=O)[nH]3)CCC4)c(C)o2)cc1	5	103	.	.
NC(=NCCc1c[nH]c2ccccc12)NC(=O)c1ccccc1	.	98	99	61
CCOc1ccc(S(=O)(=O)Nc2ccc(S(=O)(=O)N3CCOCC3)cc2)cc1	2	108	107	100
CCOc1ccc(NC(=O)CSc2nnc(CNC(=O)C34CC5CC(CC(C5)C3)C4)n2CC)cc1	-3	110	89	75
CC1=CC(c2ccc(Cl)cc2)n2nc(N3C(=O)c4ccccc4C3=O)nc2N1 (stereo unspecified)	-10	100	96	96
CC1Cn2c(C(=O)NCc3ccccc3Cl)cc3cccc(c32)S1 (stereo unspecified)	.	100	116	93
O=S(=O)(c1ccc(Cl)cc1)N1CCC(n2c(C(F)(F)F)nc3cccnc32)CC1	6	102	.	.
C=C1C2(C(=O)Nc3ccccc3OC)CCC(C2)C1(C)C (stereo unspecified)	-9	108	120	92
Cc1nc2ncnn2c(C)c1CCC(=O)N(Cc1cccnc1)c1ccc2c(c1)OCO2	18	.	101	96
C/C(=N\NC(N)N)C1CCCCCCCCCCC1	-22	102	-0.4*	-0.6*
COc1ccc(-c2cn3nc(N4CCCC(C(=O)NCCCOC(C)C)C4)sc3n2)cc1 (stereo unspecified)	.	106	102	49
CCCC(c1nnnn1Cc1ccccc1)N1CCN(c2ccccc2)CC1 (stereo unspecified)	-16	101	114	88
Cc1cccc(N2CCN(C(=O)c3cnc4c(C)cccn4c3=O)CC2C)c1 (stereo unspecified)	.	100	93	88
Cc1ccccc1-c1nc(C#N)c(N2CCN(c3ccccc3)CC2)o1	-9	97	132	102
Cc1noc2ncnc(N3CCC(C(=O)NC(C)C)CC3)c12	1	103	.	.
CC(C)CNC(=O)c1ccccc1NC(=O)c1ccco1	18	102	76	104
Cc1ccc(NC(=O)CN2C(=O)c3cccnc3Oc3ccc(Cl)cc32)cc1	.	114	64	81
O=C(NCCCc1ccccc1)c1c2c(nc3ccccc13)C(=O)N(C1CCCCC1)C2	-24	99	.	.
CCOc1ccc(N=C=S)cc1	-21	.	81	88
COc1ccc(C2=C[N+](=O)C(C)(C)C(C)(C)N2[O-])cc1	-16	104	122	101
COc1cccc(CNC(=O)CSc2nc3c(-c4ccccc4)csc3c(=O)n2C)c1	-3	99	.	.
CC(=O)N1CCc2cc(Br)cc(S(=O)(=O)N3CCC(C(=O)Nc4ccc(C(C)C)cc4)CC3)c21	-8	104	93	103
Cc1csc(NC(=O)C2CCCN(S(=O)(=O)c3cn(C)cn3)C2)n1 (stereo unspecified)	-17	101	.	.
CCN1C(=O)c2ccccc2S(=O)c2ccc(C(=O)NCC(OC)OC)cc21 (stereo unspecified)	.	96	102	96
Cc1cc(N)c2ncccc2c1	.	100	81	69
CCC(C(=O)Nc1cccc(C#N)c1)n1nc(-c2ccccc2)ccc1=O (stereo unspecified)	-16	97	106	75
O=C(CNC(=O)c1ccc(-c2ccccc2)cc1)OCc1nnc(-c2ccccc2)o1	3	.	103	98
COC(=O)c1cc(NC(=O)c2nn(C)c3c2CSc2ccccc2-3)cc(C(=O)OC)c1	-21	100	103	91
O=C(O)CC(C(=O)O)c1ccc(Cl)cc1Cl (stereo unspecified)	-8	103	107	96
CCOc1ccc(-c2cc3c(=O)n(Cc4nc(-c5ccc(OCC)c(OC)c5)oc4C)ccn3n2)cc1Cl	-15	99	90	99
Cc1ccc(CNc2ncnc3c2cnn3-c2ccc(Cl)cc2)cc1	.	106	97	93
CCOC(=O)c1ccc(NCC(=O)N2CCc3ccccc32)cc1	-28	.	86	84
COc1cccc2c1OC(C(C)C)N1N=C(c3cc(C)ccc3O)CC21 (stereo unspecified)	-33	103	101	95
CN1C(=O)Cc2c1nc(N)c1c(N)nc(N3CCN(C(=O)c4ccco4)CC3)c(C#N)c21	-20	.	92	93
O=C(NCc1ccccc1)c1ccc2c(c1)sc1nc(-c3ccccc3)cn12	.	101	95	85
CC(C)C(NC(=O)c1ccc(F)cc1)C(C)C	-5	99	103	90
COC(=O)c1nc2ccccc2nc1N1CCN(c2cccc(C)c2C)CC1	-32	99	.	.
O=C1NC(=S)N(c2ccc(Cl)cc2)C(=O)/C1=C/c1cc2c(cc1Br)OCO2	-18	104	.	.
O=C1c2cccc3cccc(c23)C(=O)N1CC1CCN(CC(O)COc2ccc3c(c2)OCO3)CC1 (stereo unspecified)	-45	101	.	.
CCOC(=O)c1c(NC(=O)c2cc(-c3cccc(OC)c3)on2)sc(C)c1C	-10	101	95	79
COC(=O)c1cccc(-n2c(C)cc(C=C3C(=O)N(C)C(=S)N(C)C3=O)c2C)c1C	-14	109	.	.
COC(=O)C(C)Sc1nnc2cc(C)c3cc(C)cc(C)c3n12 (stereo unspecified)	-15	108	91	92
CC(C(=O)N(C)C)N(c1cccc(Cl)c1)S(C)(=O)=O (stereo unspecified)	-27	97	90	97
CCOc1ccccc1C(=O)N(Cc1cc2ccccc2[nH]c1=O)C(C)C	-7	.	103	88
CCOc1ccc(-n2ccn3c(=O)[nH]nc3c2=O)cc1	-15	107	.	.
c1ccc(CCn2c(C3CCCO3)nc3ccccc32)cc1 (stereo unspecified)	-14	101	95	78
CCCNC(=O)c1ccc2c(=O)n(-c3ccc(OC)cc3)c(SCC(=O)c3ccc(OCC)cc3)nc2c1	-4	102	.	.
CCc1ccc(NC2CC(=O)NC2=O)cc1 (stereo unspecified)	-11	100	86	78
CNC(=O)c1oc2ccc3c(c2c1C)C(=O)CC1(CCCCC1)O3	.	97	104	77
Cc1ccc(S(=O)(=O)NC2=NCN(CC3CCCO3)CN2)cc1 (stereo unspecified)	4&-27	105&100	90	77
COc1ccc(C(c2ccccc2)N2CCNCC2)cc1 (stereo unspecified)	-4	103	106	78
CC(C)(C)C(=O)CSc1nc2ccccc2c(=O)[nH]1	-30	.	112	80

# The list continues.
Structure	HCMV NEC inh	GIV-Gai inh	Sa growth 42C	Sa growth 42C second temp
Cc1ccc(-c2noc(C3CCCN(C(=O)c4ccccc4)C3)n2)o1 (stereo unspecified)	-5	104	94	71
COC(=O)c1nc2ccccc2nc1NCc1cccs1	-12	128	.	.
Cn1c(=O)c(C(N)=S)cn(-c2ccccc2)c1=O	-7	109	111	96
Cc1ccn2c(Nc3ccc4c(c3)OCCO4)c(-c3ccc(C)s3)nc2c1	8	107	98	81

# Copied from the entries so far for reference:
Structure	HCMV NEC inh	GIV-Gai inh	Sa growth 42C	Sa growth 42C second temp
NC(=O)c1oc2ccccc2c1NC(=O)CSc1ccccc1	-25	.	106	83
Cc1nn(CCC(=O)N2CCc3ccccc32)c(C)c1S(=O)(=O)N1CCCC1	-12	105	107	95
CC(C)n1c(=O)c(=O)[nH]c2cc(-c3noc(-c4ccccn4)n3)ccc21	-44	103	.	.
CC1CC(C)CN(S(=O)(=O)c2ccc3[nH]cc(C(=O)NC4CCCCC4)c(=O)c3c2)C1 (stereo unspecified)	.	94	99	87
CCOc1ccc(CCNC(=O)c2nc(-c3cccnc3)no2)cc1	-25	105	86	79
CN1C(=O)S/C(=C\c2ccc(Oc3ccc([N+](=O)[O-])cc3[N+](=O)[O-])cc2)C1=O	-26	95	.	.
C=CCc1cccc2cc(C(=O)Nc3ccc(S(=O)(=O)Nc4nnc(CC)s4)cc3)c(=O)oc12	-19	98	.	.
COc1ccc(NC(=S)N(CC2CC=CCC2)CC2CCCO2)cc1 (stereo unspecified)	4	.	71	96
O=C(c1ccccc1F)N(Cc1ccco1)c1ccc(O)cc1	9	104	106	78
O=S1(=O)CCN2C(=N1)OC(c1ccccc1)=C2c1ccccc1	-16	.	106	89
COC(=O)c1ccc2c(c1)S(=O)(=O)NC(=NCc1ccco1)S2	-14	.	98	88
O=C(Nc1nc(-c2ccccc2)cs1)Oc1ccccc1	1	.	105	89
Cc1cc(-c2ccc(S(=O)(=O)NCc3ccccc3Cl)s2)on1	.	101	101	98
CCN(C(=O)CCCN1C(=O)/C(=C\c2cccs2)SC1=S)C1CCS(=O)(=O)C1 (stereo unspecified)	-81	104	93	82
CCN=c1scc(-c2ccco2)n1/N=C/c1cccc(C(F)(F)F)c1	-39	.	111	97
Cc1ccc(-c2cc(NC(=O)COc3ccc(Cl)c(C)c3)on2)cc1	5	98	97	96
C=CCN1C(=O)S/C(=C/c2ccc(N3CCOCC3)cc2)C1=O	-24	95	128	103
COc1ccc(NC(=O)C2CC(=O)N(Cc3ccc4c(c3)OCO4)C(=Nc3ccccc3)S2)cc1 (stereo unspecified)	7	107	.	.
Cc1onc(-c2ccccc2)c1CNS(=O)(=O)c1cccc(Cl)c1	-36	96	91	68
